Rce1 inhib = yeast Rce1p protease inhibitors, primary screen, biochemical, fluorescence, cell-free homogeneous; CAAX prenyl protease 2 (Saccharomyces cerevisiae (strain ATCC 204508 / S288c)), Q03530; yeast membranes, quenched prenylated peptide cleavage fluorescence; calls only; hit rate 0.27% among 290,000; AID 2563, 2010;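 active = fall in fluorescence gain of 50% or more versus controls, with final raw signal at or below 3038400; inconclusive = same 50% fall but final raw signal above 3038400; inactive = fall in fluorescence gain under 50%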;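 note: plate controls were neutral control wells for no effect and wells lacking membranes for full effect; tested at 10 µM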
MT1-MMP act inh = blockers of MT1-MMP proenzyme processing, primary screen, HT1080 RFP-PRO-GFP cells, GFP/RFP fluorescence; GFP/RFP ratio fluorescence, overnight; percent of plate control window, DMSO zero; GFP/RFP ratio change, % at 20 µM; Matrix metalloproteinase-14 (Homo sapiens), P50281; AID 651647, 2012; hit rate 0.061% among 360,000;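 active = GFP/RFP ratio change of at least 30% with cell ATP level not reduced by more than half and red fluorescence within 50% of control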; note: strong numbers were not always called active
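system = RFP-PRO-GFP reporter HT1080 cells | dosing = 20 µM single dose, 1% DMSO | timing = overnight cell settling, then overnight compound exposure, 37 °C, 5% CO2 | read-out basis = GFP/RFP fluorescence ratio | controls = DMSO and RFP-L50D-GFP cell wells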
CSC inhib = cancer stem cell viability inhibitors, primary screen, luminescence | cancer stem cell-like cells viability | inhibition, % at 7.5 µM | hit rate 1.1% among 300,000;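 active = mean at 75% or more and at least half the replicates too; inconclusive = mean and replicates disagree; tested in HMLE shEcad cells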;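 note: 0% = median of negative and 100% = median of positive control wells; the first replicate is given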
PABP FP inh = PABP poly(A) RNA binding inhibitors, primary screen, biochemical, fluorescence polarization, uHTS; Polyadenylate-binding protein 1 (Homo sapiens), P11940; inhibition, % at 35 µM; hit rate 1% among 290,000; AID 2014, 2009;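 active = 50% or more with normal probe brightness, or confirmed in later tests; inconclusive = above 50% with abnormal brightness, or retests that disagree; inactive = below 50% or failed in later tests; about a fifth of its hits are not listed in these tables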;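 note: calls also rest on retests at 20 µM and on dose response follow-up; controls were probe without protein and protein plus probe with vehicle; some compounds called inactive have numbers as strong as hits; many hits fall short of the cut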
Target sequence (P11940 whole entry, looked up): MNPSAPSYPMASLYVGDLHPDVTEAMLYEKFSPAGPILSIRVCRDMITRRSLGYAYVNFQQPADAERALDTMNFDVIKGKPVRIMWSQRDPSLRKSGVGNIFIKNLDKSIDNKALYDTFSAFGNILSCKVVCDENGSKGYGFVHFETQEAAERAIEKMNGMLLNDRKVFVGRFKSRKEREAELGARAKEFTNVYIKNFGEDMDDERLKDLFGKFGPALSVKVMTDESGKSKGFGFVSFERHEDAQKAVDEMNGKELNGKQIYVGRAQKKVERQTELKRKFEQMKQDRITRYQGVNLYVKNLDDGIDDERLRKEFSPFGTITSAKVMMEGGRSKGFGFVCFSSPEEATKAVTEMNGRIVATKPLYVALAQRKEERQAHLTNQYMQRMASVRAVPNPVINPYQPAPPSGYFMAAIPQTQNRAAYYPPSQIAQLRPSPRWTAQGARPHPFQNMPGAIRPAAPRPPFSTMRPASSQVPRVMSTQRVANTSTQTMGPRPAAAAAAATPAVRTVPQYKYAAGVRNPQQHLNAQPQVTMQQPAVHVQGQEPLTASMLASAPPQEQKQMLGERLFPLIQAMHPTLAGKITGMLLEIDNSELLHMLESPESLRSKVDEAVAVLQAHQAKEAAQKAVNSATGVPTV
Env fusion inh = inhibitors of HIV-1 Env-driven cell-cell fusion, primary screen, HeLa-JRFL effector, CEM21 target cells, luciferase; inhibition, % at 12.3 µM; hit rate 1.1% among 360,000; AID 651610, 2012;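 active = mean replicate inhibition score of at least 50 and every replicate individually at or above 50; inconclusive = only one of the two criteria met; inactive = mean below 50 and not all replicates reaching 50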;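 note: 0% = plate neutral controls and 100% = maraviroc near 300 nM; one replicate is shown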
Yeast UUG start = modulators of yeast start codon fidelity, primary screen, whole organism, S. cerevisiae, single point, plate reader; S. cerevisiae UUG-firefly luciferase reporter, luminescence/redox ratio; activity score, % at 18.7 µM; hit rate 0.13% among 350,000; AID 602363, 2012;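 active = replicate mean at a twofold rise or more, about +100% in these data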;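 note: firefly luciferase made from a UUG start codon reports start codon fidelity; reporter light over untreated wells divided by growth signal over untreated wells; some hits fall short of that in this replicate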
eIF4H FP inh = human eIF4H binding inhibitors, primary screen, translation initiation inhibitor project, biochemical, uHTS, fluorescence polarization | Eukaryotic translation initiation factor 4H (Homo sapiens), Q15056 | eIF4H fluorescence polarization binding assay | inhibition, % at 35 µM | hit rate 0.94% among 290,000;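 active = 50% or more with normal probe brightness, or confirmed in later tests; inconclusive = above 50% with abnormal brightness, or retests that disagree; inactive = below 50% or failed in later tests; about a fifth of its hits are not listed in these tables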;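 note: calls also rest on retests at 20 µM and on dose response follow-up; 0% = protein and probe with vehicle and 100% = probe without protein; strong numbers were not always called active; many hits fall short of the cut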
eIF4H FP inh retest = further read-out of eIF4H FP inh, marked with its call; inhibition, %; compound at 20 µM; confirmation average;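 mean of two retest wells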
PABP FP inh retest = also measured in PABP FP inh; calls as there; inhibition, %; compound at 20 µM; confirmation repeats;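 mean of two retest wells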
MT1-MMP act inh RFP = second read-out of MT1-MMP act inh, no call of its own (marks repeat the call); RFP signal change, %; measured here: RFP expression control read;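 0 = vehicle wells; hits needed this value within 50% of zero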
* = called active by the depositor; i = inactive; ? = inconclusive; . = no result given; + = active, no number.

SMILES | Rce1 inhib | MT1-MMP act inh | MT1-MMP act inh RFP | CSC inhib | PABP FP inh | Env fusion inh | Yeast UUG start | eIF4H FP inh | others
CCOC(=O)C1(CCOc2ccccc2)CCN(Cc2cc(OC)c3c(c2)OCO3)CC1 | i | -5 | -18 | -5 | -10 | 7 | 1 | -5
CCc1ccccc1NC(=O)c1cc(-c2ccc(OC)cc2)on1 | i | -1 | 3 | 5 | 1 | -14 | -15 | 3
CCCC(c1nnnn1CS(=O)(=O)c1ccc(C)cc1)N1CCN(C2CCCC2)CC1 (stereo unspecified) | i | -2 | -1 | 3 | -3 | 3 | -2 | -14
CCOC(=O)[C@@H]1[C@H]2COc3ccc(Br)cc3[C@@H]2N2C(=O)N(c3cccc(Cl)c3)C(=O)[C@]12C | + | -2 | -4 | 15 | . | 15 | -18 | .
Cn1c(=O)c2[nH]c(COc3ccccc3)nc2n(C)c1=O | . | -17 | 4 | . | . | 18 | -17 | .
CC(C)C(OC(=O)/C=C/c1ccc2c(c1)OCO2)C(=O)NC(N)=O (stereo unspecified) | i | 5 | 1 | -7 | -9 | -4 | -18 | -9
O=C(CNCC1CCCCC1)Nc1ccccc1N1CCCCC1 | i | -7 | -8 | 31 | 1 | 75* | -12 | -15
CC1(OC(=O)CCc2ccccc2)C(=O)C=C2C=C(c3ccc(C#N)cc3)N(C3CC3)C=C2C1=O (stereo unspecified) | i | 5 | 1 | 11 | 38* | -2 | -9 | 65 | eIF4H FP inh retest=27;PABP FP inh retest=61*
CCN(CC)C(=O)c1ccccc1NC(=O)c1ccccc1SC | i | 2 | 5 | -7 | -7 | 15 | . | -6
O=C(NCCOCC(F)(F)C(F)F)c1cc(F)c(F)cc1Cl | i | 3 | -2 | 14 | -2 | . | . | 0
O=C(O)c1ccccc1/C=N/NC(=O)c1cc(-c2ccco2)nc2ccccc12 | i | -1 | 6 | 1 | 76* | -7 | -16 | 82*
COc1ccc(C(=O)COc2cccc(NC(=O)c3ccco3)c2)cc1 | i | -1 | -4 | 11 | -17 | -40 | . | -7
CCOC(=O)C1=NOC(C(=O)NN(C)c2ncc(C(F)(F)F)cc2Cl)C1 (stereo unspecified) | i | 1 | 4 | -7 | -8 | 8 | -6 | 4
CSc1nc2nc3c(cc2c(=O)n1-c1cccc(C)c1)COC(C)(C)C3 | i | 3 | -2 | -7 | 1 | -3 | 5 | -8
CCN(CC)CC(=O)N1c2ccccc2Oc2c(c(=O)n(C)c(=O)n2C)C1c1cccc([N+](=O)[O-])c1 (stereo unspecified) | i | -5 | 3 | 0 | 1 | -6 | . | 7
Cc1cc(C)c(C(=O)COC(=O)Cn2cnnn2)cc1C | i | -1 | 1 | -11 | 8 | 7 | -13 | 16
CC(=O)Nc1cc(NC(C)=O)c2nc(N)sc2c1 | i | -1 | 1 | -18 | 4 | . | 22 | 0
CCCn1c(SCC(=O)Nc2cc(C)on2)nc2c1c(=O)n(C)c(=O)n2C | i | -2 | -4 | -3 | . | -43 | -13 | .
COc1cc(NC(=S)NCc2ccc(S(N)(=O)=O)cc2)cc(OC)c1 | i | -3 | 4 | -25 | 1 | 13 | . | 4
COc1cccc(OC)c1C(=O)OCC(=O)/C(C#N)=C(\C)N | i | -3 | 1 | 3 | -15 | 0 | . | 9
CCOC(=O)CSc1nc2ccc(C)cc2cc1C#N | i | -16 | 1 | 8 | 12 | . | -22 | -2
COc1ccccc1-n1c(=S)sc2c(=O)n(Cc3ccco3)c(SC)nc21 | i | 13 | -3 | 28 | -6 | 30 | 0 | -5
O=C(NS(=O)(=O)c1ccccc1)c1ccccc1 | i | -3 | 3 | -15 | 12 | -50 | -11 | 6
C[C@H]1C(=O)N(c2ccccc2)[C@@H]1c1ccccc1 | . | 1 | 4 | . | . | -22 | -15 | .
Cc1c(C(=O)N2CCCCC2)c(S(=O)(=O)NCc2ccc(Cl)cc2)c(C)n1C | i | 7 | 9 | 1 | 12 | 35 | 5 | -7
SMILES | Rce1 inhib | MT1-MMP act inh | MT1-MMP act inh RFP | CSC inhib | PABP FP inh | Env fusion inh | Yeast UUG start | eIF4H FP inh | others
O=C1CCC(C(=O)N2CCN(c3cnccn3)CC2)CN1CCc1ccc(Cl)cc1 (stereo unspecified) | i | -1 | -1 | . | 0 | -35 | -5 | -6
COC(=O)c1cccc(Oc2cccc(Cl)n2)c1 | i | -3 | 5 | -4 | 14 | 13 | -10 | -2
C=CCOC(=O)C1=C(C)NC(SCC(=O)OCC)=C(C#N)C1c1ccc(O)c(OC)c1 (stereo unspecified) | i | -1 | -1 | . | 13 | . | . | 5
CCc1cccc(C)c1NC(=O)CSc1nc(-c2ccccc2F)nc2nc[nH]c12 | i | -1 | -2 | 1 | 18 | -56 | . | 2
O=C(CN1C(=O)c2ccccc2S1(=O)=O)c1ccc(Cl)cc1Cl | i | -2 | 0 | -3 | -2 | 62* | -9 | -10
CCOC(=O)/C=C/C(=O)OCC(=O)Nc1cccc(Br)c1 | i | -6 | -6 | 4 | -3 | 3 | . | 0
O=C(Nc1cccc2nsnc12)c1ccc2c(c1)OCCO2 | i | -5 | 1 | -17 | -1 | . | 9 | 3
CC(C)(C)[C@H]1COC(=O)CC/C=C\C[C@@H](CC(=O)N(CCO)Cc2ccccc2)C(=O)N1 | . | 6 | 9 | 0 | . | -4 | 35 | .
COc1ccc(C(O)P(=O)(O)CCc2ccccc2)cc1 (stereo unspecified) | i | 2 | 10 | 1 | -4 | . | -8 | -9
O=C(NN=C(c1ccccc1)c1ccccc1)C(CCl)C1CCCCC1 (stereo unspecified) | . | -1 | 2 | -10 | . | -20 | -6 | .
C1CCN2C[C@@H]3C[C@@H](CN4CCCC[C@@H]34)[C@H]2C1 | . | 3 | 6 | . | . | 21 | -3 | .
O=C(NC1CC2CCC1C2)C1COc2ccccc2O1 (stereo unspecified) | i | 6 | 3 | 2 | 2 | -74 | 0 | -10
O=C1N(Cc2cccnc2)C[C@@H]2C[C@@H](c3ccc(-c4ccccc4)cc3)N3CCC[C@@]123 | i | -6 | -5 | 8 | -14 | 18 | -7 | 20
Cc1ccc2c(c1)N(CC(=O)NCc1ccco1)C(=O)CO2 | i | -1 | -1 | 7 | -10 | -159 | -30 | 2
O=C(COC(=O)Cn1ccc(=O)[nH]c1=O)Nc1ccc(F)cc1 | . | 0 | 3 | 1 | . | -65 | -17 | .
O=C(O)c1ccccc1N1C(=O)c2cccc3cccc(c23)C1=O | i | -8 | 3 | -7 | -2 | -25 | 8 | -2
CCCn1c(CN2CCN(C(=O)c3ccco3)CC2)nc2c1c(=O)n(C)c(=O)n2C | i | -1 | -1 | -7 | 6 | 7 | -9 | -9
COC(=O)c1cc(OC)c(OC)cc1NC(=O)Nc1ccc(OC)cc1OC | i | 10 | 4 | 23 | 7 | 26 | -2 | -4
O=C(COC(=O)C1CCN(c2ccc(C(F)(F)F)cn2)CC1)Nc1cc(F)ccc1F | i | 3 | 2 | 6 | . | 2 | . | .
O=C(c1ccco1)N1CCN(C(=O)c2[nH]c(C(F)(F)F)nc2-c2ccccc2)CC1 | . | 1 | -1 | . | . | 8 | -7 | .
Cc1ccc(C(=O)C(C)OC(=O)Cn2[nH]c(=O)c3ccccc3c2=O)cc1C (stereo unspecified) | i | -3 | -2 | . | -7 | 6 | -19 | -6
CCOC(=O)/C=C/c1ccc2c(c1)S(=O)(=O)N(Cc1ccc(OC)cc1)[C@H]2CC(=O)OCC | i | 3 | -1 | 3 | . | -24 | -19 | .
COC(=O)c1ccc(COc2cc([N+](=O)[O-])cc3cccnc23)o1 | i | 5 | 3 | -6 | 14 | 5 | . | 51 | eIF4H FP inh retest=14;PABP FP inh retest=20
CN(C)CCCn1c(SCC(=O)Nc2nc(-c3cccc(Br)c3)cs2)nc2ccccc2c1=O | i | -4 | -6 | ? | -33 | -15 | -20 | -11
N#Cc1cc(-c2cccc(Cl)c2)c[nH]c1=O | i | 3 | 4 | -2 | -7 | -307 | . | -11
COc1cccc(NC(=O)C(C)N2C(=O)c3ccccc3C2=O)c1 (stereo unspecified) | i | 2 | 5 | -10 | 1 | 22 | -15 | 2
O=C(Nc1ncccc1O)c1ccc(Oc2ccccc2)cc1 | i | 15 | -4 | 7 | 7 | -12 | -27 | -2
[O-]/C(=C(\C(=S)NCc1ccco1)[n+]1ccccc1)c1ccccc1Br | i | -3 | 10 | -10 | 23 | . | -13 | 22
CCOc1cc(CNCCCN2CCOCC2)cc(Br)c1OCc1ccccc1Cl | i | -6 | -8 | -5 | -5 | 18 | -16 | -2
CNc1ccc(/C=C/C(=O)c2ccc(C)cc2)cc1[N+](=O)[O-] | i | 4 | -1 | 33 | -3 | -1 | . | -1

An excerpt from above in order of molecular weight, ascending.
SMILES | Rce1 inhib | MT1-MMP act inh | MT1-MMP act inh RFP | CSC inhib | PABP FP inh | Env fusion inh | Yeast UUG start | eIF4H FP inh | others
N#Cc1cc(-c2cccc(Cl)c2)c[nH]c1=O | i | 3 | 4 | -2 | -7 | -307 | . | -11
COC(=O)c1cccc(Oc2cccc(Cl)n2)c1 | i | -3 | 5 | -4 | 14 | 13 | -10 | -2
COc1ccc(C(O)P(=O)(O)CCc2ccccc2)cc1 (stereo unspecified) | i | 2 | 10 | 1 | -4 | . | -8 | -9
O=C(Nc1cccc2nsnc12)c1ccc2c(c1)OCCO2 | i | -5 | 1 | -17 | -1 | . | 9 | 3
O=C(O)c1ccccc1N1C(=O)c2cccc3cccc(c23)C1=O | i | -8 | 3 | -7 | -2 | -25 | 8 | -2
O=C(COC(=O)Cn1ccc(=O)[nH]c1=O)Nc1ccc(F)cc1 | . | 0 | 3 | 1 | . | -65 | -17 | .
COC(=O)c1ccc(COc2cc([N+](=O)[O-])cc3cccnc23)o1 | i | 5 | 3 | -6 | 14 | 5 | . | 51 | eIF4H FP inh retest=14;PABP FP inh retest=20
O=C(CN1C(=O)c2ccccc2S1(=O)=O)c1ccc(Cl)cc1Cl | i | -2 | 0 | -3 | -2 | 62* | -9 | -10
Cc1ccc(C(=O)C(C)OC(=O)Cn2[nH]c(=O)c3ccccc3c2=O)cc1C (stereo unspecified) | i | -3 | -2 | . | -7 | 6 | -19 | -6
CCCn1c(CN2CCN(C(=O)c3ccco3)CC2)nc2c1c(=O)n(C)c(=O)n2C | i | -1 | -1 | -7 | 6 | 7 | -9 | -9
O=C1CCC(C(=O)N2CCN(c3cnccn3)CC2)CN1CCc1ccc(Cl)cc1 (stereo unspecified) | i | -1 | -1 | . | 0 | -35 | -5 | -6
C=CCOC(=O)C1=C(C)NC(SCC(=O)OCC)=C(C#N)C1c1ccc(O)c(OC)c1 (stereo unspecified) | i | -1 | -1 | . | 13 | . | . | 5

High-throughput results deposited in PubChem by several laboratories.
